Compound activity as filed in PubChem BioAssay.
Resorufin fluor: compounds fluorescent in resorufin spectral region | Compound fluorescence, resorufin region 547/598 nm, buffer; active compounds read high | max dye-equivalent concentration, M | 59,000 compounds, 0.04% hits; active = above 10 nM dye equivalent; inconclusive = 1 to 10 nM; inactive = 1 nM or less; a few of its hits are not listed in these tables; further: highest value over a series up to 38 µM
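Tris 100 mM pH 8.0; compound added, 15 min RT; CCD imager read, ex 547 nm/em 598 nm; signal normalized to resorufin standard curve (six concentrations per plate) as dye-equivalent concentration.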
AID923: qHTS Assay for Allosteric/Competitive Inhibitors of Caspase-1: Spectroscopic Profiling in AFC Spectral Region; 75,000 compounds, 1.1% hits; compound fluorescence, AFC spectral region (405/520 nm); almost no hit is shown here; Potency, µM (highest dose often 57.5 µM), for the others: at the highest dose fluorescence increase, most hits filed as activators; AID 923, 2007; active means well fitted activation curve with a large enough effect; inconclusive means small, poorly fitted or top-dose-only effect;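 further: potency means the concentration at half of the fitted maximal effect; 0% is about no effect; scaled to a free AFC standard on each plate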
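Baseline compound fluorescence (AFC region, 405 nm ex/520 nm em) taken from the intercept of kinetic reads with 50 nM caspase-1 and 5 uM Ac-WEHD-AFC; normalized to an on-plate AFC standard curve; compounds titrated up to 57 uM.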
A488 autofl: compound autofluorescence in A488 spectral region. compound autofluorescence, A488 spectral region, dye equivalency; active compounds read high. max dye equivalency, M. 59,000 compounds, 0.1% hits; active = above 10 nM dye equivalent; inconclusive = 1 to 10 nM; inactive = 1 nM or less; about half of its hits are not listed in these tables;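 further: highest value over a series up to 38 µM; compound alone in buffer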
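Read-out: relative fluorescence at 480/540 nm, expressed as Alexa 488 dye-equivalent concentration from a six-point A488 standard included per plate. Conditions: 100 mM Tris, pH 8.0; 15 min incubation, room temperature.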
TSHR agonist: TSH receptor (human) agonism. P16473. HEK293-CNG-TSHR cells (CNG channel as cAMP sensor), membrane potential dye, cAMP. Potency, µM (series often up to 57.1 µM), inactives show at the highest dose activation, usual class: activators. 73,000 compounds, 0.48% hits. AID 926; active = well fitted activation curve of enough size with the parental cells flat; inconclusive = any curve in the parental cells; inactive = parental cells flat and receptor cells flat or falling; further: potency means the concentration at half of the fitted maximal effect; % of control where 0% means no effect; weak receptor curves with flat parental cells got no call and are not listed
Target sequence (P16473 whole entry, looked up): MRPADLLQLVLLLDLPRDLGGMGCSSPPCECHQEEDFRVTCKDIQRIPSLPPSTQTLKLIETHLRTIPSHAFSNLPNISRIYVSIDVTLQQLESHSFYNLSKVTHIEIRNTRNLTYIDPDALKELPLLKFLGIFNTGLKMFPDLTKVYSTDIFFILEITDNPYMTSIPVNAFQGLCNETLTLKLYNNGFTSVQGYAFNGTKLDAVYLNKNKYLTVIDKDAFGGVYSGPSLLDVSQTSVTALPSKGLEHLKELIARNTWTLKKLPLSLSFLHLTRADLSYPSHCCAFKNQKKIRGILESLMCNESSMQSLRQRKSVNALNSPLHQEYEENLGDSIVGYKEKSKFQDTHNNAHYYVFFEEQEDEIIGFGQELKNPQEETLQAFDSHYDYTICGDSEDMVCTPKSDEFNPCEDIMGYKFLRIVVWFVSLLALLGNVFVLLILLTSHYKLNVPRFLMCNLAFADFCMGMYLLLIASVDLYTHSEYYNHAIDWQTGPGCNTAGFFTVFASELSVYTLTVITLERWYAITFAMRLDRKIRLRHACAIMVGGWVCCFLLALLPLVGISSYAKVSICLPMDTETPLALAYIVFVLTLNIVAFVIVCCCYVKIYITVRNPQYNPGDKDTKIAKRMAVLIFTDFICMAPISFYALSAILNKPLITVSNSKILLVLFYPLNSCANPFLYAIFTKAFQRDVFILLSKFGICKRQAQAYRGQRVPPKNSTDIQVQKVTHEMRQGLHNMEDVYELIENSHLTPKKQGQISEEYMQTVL
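HEK 293 cells stably expressing TSHR and a modified CNG channel, with CNG-only parental cells as counterscreen, were preloaded 60 min at room temperature with membrane potential dye containing 100 uM RO 20-1724. Compound exposure was 30 min, and depolarization was read as fluorescence at 590 nm.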
A647 autofl: A647 region autofluorescence. Compound fluorescence, A647 channel (570/671 nm), Tris buffer. 59,000 tested, under 10 active. max dye-equivalent concentration, M. AID 592; active means above 1 µM dye equivalent; inconclusive means 0.1 to 1 µM; inactive means 0.1 µM or less;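 further: values scaled relative to a standard on each plate; highest value over a series up to 38 µM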
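Spectral profiling of library compounds in pH 8.0 Tris: 15 min room-temperature incubation, single ex/em pair (570/671 nm), response normalized to Alexa 647 equivalents.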
Numbers without * were called inactive; i = inactive; u = inconclusive; x = no result given; [ ] = another dose, or the depositor's remark.

Compound | A647 autofl | Resorufin fluor | TSHR agonist | A488 autofl | AID923
COc1ccc(OC)c(NC(=O)C2CCN(c3cc(-c4ccccc4)nc4ncnn34)CC2)c1 | 3.1e-08 | i | 1% | i | 0.9%
Cc1ccc(C(=O)N(CN2CCCC2=O)c2ccc(F)cc2)cc1 | 5.1e-08 | i | 1% | i | -0.4%
CCOC(=O)c1nc2sc3c(c2c(=O)[nH]1)CCCC3 | x | x | u | x | 10%
Cc1cccc(CN2CCN(CC(=O)NCCCN3CCCC3=O)C2=O)c1 | 2.2e-08 | i | -5% | i | -1.9%
CCc1ccc2[nH]cc(C(=O)N3CCCCCC3)c(=O)c2c1 | 5.4e-08 | i | -1% | i | 0.8%
CCOC(=O)C(NC(C)=O)(NS(=O)(=O)c1ccccc1)C(F)(F)F (centres undefined) | 1.2e-09 | i | x | i | -2.4%
CCOC(=O)CCCNC(=O)COC(=O)CCC(=O)c1ccc(F)cc1 | 2.2e-08 | i | 4% | i | -1.1%
COc1ccccc1N1CCN(C(=O)CCNS(=O)(=O)c2ccc3c(c2)CCC(=O)N3)CC1 | 1.8e-08 | i | 7% | i | -0.7%
O=CC(=O)c1ccccc1 | x | x | -6% | x | -0.1%
NC[C@@H]1O[C@H](O[C@H]2[C@H](O)[C@@H](O[C@H]3[C@H](O)[C@H](N)C[C@H](N)[C@H]3O[C@@H]3O[C@H](CO)[C@@H](O)[C@H](O)[C@@H]3N)O[C@H]2CO)[C@@H](N)[C@H](O)[C@@H]1O | 2.8e-08 | i | x | i | 1.2%[25.7 µM]
COc1ccccc1NC(=O)c1cc2n(n1)C(C(F)(F)F)CC(c1ccc3c(c1)OCO3)N2 (centres undefined) | 7.9e-09 | i | -4% | i | -1.9%
O=C1CC(N(O)c2ccccc2)C(=O)N1c1cc(Cl)cc(Cl)c1 (centres undefined) | 6.1e-09 | i | 6% | i | 0.9%
COc1ccc(-c2nnc(SCC(=O)c3ccco3)n2-c2ccccc2)cc1 | 2.2e-08 | i | 12% | i | 0.1%
COc1ccccc1CNS(=O)(=O)c1c(C)noc1C | 1.6e-09 | i | 0% | i | -1.0%
CCC(=O)N1CCc2cc(Br)cc(S(=O)(=O)NCc3ccco3)c21 | 5.8e-09 | i | 10%[11.4 µM] | i | 1.5%
Cn1c(=O)cc(SCC(=O)NCc2ccco2)c2ccccc21 | 5.2e-09 | i | -8% | i | 0.3%
CC(C)CN1CCCC2(CCN(C(=O)c3cccn3C)CC2)C1 | 3e-08 | i | u | i | -0.1%
CC(Cc1ccccc1)C(=O)N[C@@H](CO)Cc1ccccc1 (some centres undefined) | x | x | 6% | x | -1.4%
N#Cc1ccccc1CSc1nc(N2CCCCC2)nc(N2CCCCC2)n1 | 4.4e-09 | i | -8% | i | 0.6%
O=C1c2cccc3c(Cl)ccc(c23)C(=O)N1O | 9.1e-09 | i | u | i | -1.5%
CC1CCN(C(=O)c2ccc(C(=O)N3CCC(C)CC3)cc2)CC1 | 6.8e-09 | i | -1% | i | 1.0%
C[C@@H](C(=O)O)[C@@H]1C[C@@]1(C)[C@@H](NC(=O)OCc1ccccc1)c1ccccc1 | x | x | u | x | -1.0%
COc1ccccc1-c1cc(C(=O)N2CCc3ccccc3C2)no1 | x | x | 23% | x | -2.5%
O=C(O)c1cccc2c1C(=O)N(Cc1ccncc1)C2 | 4.5e-08 | i | 1% | i | 2.9%
O=C(Nc1ccc(Cl)cc1C(=O)N1CCOCC1)c1ccco1 | 3.2e-08 | i | 7% | i | -0.4%
COc1ccccc1N1CCN(C(=O)CSc2nc3ncnc(N)c3[nH]2)CC1 | 2e-08 | i | 2% | i | 0.6%
COc1ccc(OC)c2[nH]c(=O)c(CCNC(C)=O)cc12 | x | x | -2% | x | -2.5%
CCCC1C(C#N)=C(N)Oc2n[nH]c(C(C)(C)C)c21 (centres undefined) | x | x | 4% | x | 0.3%
Cc1cc(=O)[nH]c(-n2nc(C)c(Oc3ccccc3O)c2C)n1 | x | x | u | x | 0.4%
CCc1nnc(NC(=O)c2c(O)c3cccc4c3n(c2=O)CC4)s1 | 1.6e-08 | i | -4% | i | 1.0%
CCNC(=O)c1ccc(NS(=O)(=O)c2ccccc2)cc1 | 2.7e-08 | i | -2% | i | 5.0%
Cn1c(=O)c2c(nc(NCc3ccco3)n2C)n(C)c1=O | 4.5e-08 | i | 3% | i | -1.8%
CCCSc1n[nH]c(NC(C)=O)n1 | x | x | -3% | x | 1.7%
Cn1c(SCC(=O)c2ccc(-c3ccccc3)cc2)nnc1-c1ccco1 | 1e-09 | i | x | i | 1.5%
COC1CCCCC1Nc1cc(C)ccc1C (centres undefined) | x | x | 16% | x | 0.2%
O=C(NCCNCCO)c1c(O)c2cccc3c2n(c1=O)CCC3 | 3.2e-09 | i | u | i | 0.8%
COc1ccc(N(CC(=O)NCC2CCCO2)S(=O)(=O)c2c(C)noc2C)cc1 (centres undefined) | 1.1e-09 | i | 2% | i | -0.9%
COc1cc(CNc2cc(C)ccc2C)cc(OC)c1OC | x | x | 16% | x | -1.3%
COc1cc(OC)cc([C@H](CNc2ncnc3c2ncn3[C@@H]2O[C@@H](CO)[C@H](O)[C@@H]2O)c2ccccc2C)c1 | 3.3e-08 | i | x | i | x
CCOc1ccc(NC(=O)c2ccc(S(=O)(=O)N(C)C)cc2)cc1 | x | x | 5% | x | 1.9%
O=C(Nc1ncn[nH]1)c1c(Cl)ccc(Cl)c1Cl | 1.8e-09 | i | x | i | x
Cn1c(SCC(=O)NC(C)(C)C)nc(O)cc1=O | 1.6e-08 | i | 13% | i | 1.6%
Cc1cccc(C)c1N(CC(=O)N1CCN(C)CC1)S(C)(=O)=O | 7.9e-09 | i | 4% | i | -1.3%
Oc1ccc(Oc2ncc(Cl)cc2Cl)cc1 | 6.9e-09 | i | 2% | i | -3.0%
Cc1ccc(S(=O)(=O)C2(C(=O)N(C)C3CCCCC3)CC2)cc1 | 1.3e-09 | i | 5% | i | 0.1%
O=C(Nc1ccccc1N1CCN(C(=O)c2ccccc2)CC1)c1ccc2c(c1)OCO2 | 3.6e-08 | i | 21% | i | -0.4%
CN(C)C(=O)c1ccc(-c2nc(N3CCOCC3)c3ccccc3n2)cc1 | 4.4e-08 | i | 3% | i | -1.1%
O=C(CN1CCC(NC(=O)Nc2ccccc2-c2ccccc2)CC1)NCc1ccco1 | 4.3e-08 | i | u | i | 0.9%
CCOC(=O)c1[nH]c(C)c(C(=O)NC2CCN(C(=O)OCC)CC2)c1C | 6.9e-09 | i | -3% | i | 0.3%
O=C(c1cccs1)N(Cc1ccco1)C1CCS(=O)(=O)C1 (centres undefined) | 6.4e-09 | i | 9% | i | -1.5%

(more compounds)
Compound | A647 autofl | Resorufin fluor | TSHR agonist | A488 autofl | AID923
CCc1ccc2[nH]c(=O)c(CN(CCN3CCCC3)C(=O)NC3CCCCC3)cc2c1 | 4.6e-08 | i | 10% | i | 0.7%
O=C(Cn1cccc1C(=O)c1ccccc1)NCc1ccc2c(c1)OCO2 | 2.7e-08 | i | x | i | -1.6%
O=C(O)C[C@H](S)C(=O)O | 1e-09 | i | 2%[11.4 µM] | i | 6.1%[11.5 µM]
CCC(=O)Oc1c(S(=O)(=O)c2ccc(C)cc2)c(C)nn1C(C)(C)C | 2.3e-08 | i | 27% | i | 1.8%
O=C(NC1CCCCCCC1)C1CCN(S(=O)(=O)N2CCC3(CC2)OCCO3)CC1 | 2.4e-09 | i | 4% | i | -1.9%
CC(=O)CC(=O)NC1C2CC3CC(C2)CC1C3 (centres undefined) | x | x | 6% | x | 2.5%
COc1ccc2[nH]c3ccc(OC)cc3c2c1 | 8.5e-09 | i | u | i | -3.3%
COc1ccc(OC)c(S(=O)(=O)n2ccnc2)c1 | x | x | 2% | x | 2.3%
COc1ccc(-c2onc(C)c2-c2ccccc2)c(O)c1 | 1e-09 | i | x | i | x
O=C(Nc1ccc(N2CCOCC2)c(F)c1)c1ccncc1 | 1.2e-08 | i | 2% | i | -1.6%
O=C(c1cc2ccccc2oc1=O)N1CCN(C(=O)C2CCCO2)CC1 (centres undefined) | 1e-09 | i | 9% | i | -0.6%
O=c1[nH]c2ccsc2c(=O)n1-c1ccc(F)cc1 | 4.6e-09 | i | u | i | 1.6%
CC(C)c1nnc(NC(=O)CCC(=O)NCc2ccco2)s1 | 1.2e-09 | i | 14% | i | 0.5%
N#Cc1cccc(-c2nc3cnc(Nc4ccccc4)nc3n(C[C@H]3CCCO3)c2=O)c1 | 1.8e-09 | i | -3% | i | 8.8%
COc1cccc2cc(C(=O)N3CCc4ccccc4C3)c(=O)oc12 | 1.9e-08 | i | 9% | i | -0.3%
COc1cc(S(=O)(=O)NCCc2ccc3c(c2)OCO3)ccc1-n1cnnn1 | 6.3e-09 | i | 2% | i | -1.9%
O=C(c1ccccc1)c1ccc(N2CCCC2)cc1 | x | x | u | x | 6.4%
Cc1ccccc1-n1nnnc1SCc1ncc(-c2ccccc2)o1 | 2.6e-08 | i | u | i | 0.9%
Cn1c(=O)c2c(nc(CN3CCc4ccccc4C3)n2Cc2ccccc2F)n(C)c1=O | 4.6e-08 | i | u | i | 1.9%
CCCOc1ccc(Cn2c(=O)oc3ccc(C)cc32)cc1OC | 3.3e-08 | i | u | i | -1.2%
O=C(Nc1ccccc1)N(CCCN1CCOCC1)Cc1cccs1 | x | x | u | x | 2.4%
COc1cc2[nH]c(=O)n(Cc3ccc(C(=O)NCC4CCCO4)cc3)c(=O)c2cc1OC (centres undefined) | 3.5e-09 | i | 0% | i | 0.5%
Cn1c(Cn2c(=O)sc3ccccc32)nnc1SCC(=O)Nc1ccccc1F | x | x | 2% | x | 1.3%
CN1CCN(C(c2cccc(C(F)(F)F)c2)c2nnnn2C(C)(C)C)CC1 (centres undefined) | 3.4e-08 | i | 7% | i | -0.6%
COc1ccc(C(=O)/C=C/Nc2cc(C)on2)cc1 | x | x | 12% | x | 1.6%
Cc1cc(Oc2ccccc2)nc(N)n1 | 1e-09 | i | -3% | i | 0.9%
CC(C)OC(=O)CSc1nnc(-c2ccc(O)cc2)n1Cc1ccccc1 | 4e-08 | i | x | i | -2.2%
O=C(Cc1ccc(S(=O)(=O)N2CCOCC2)s1)Nc1ccc2c(c1)CCC2 | 1.1e-08 | i | -5% | i | -0.7%
CC(C)Cc1cc(C(=O)O)n[nH]1 | 1e-09 | i | 1% | i | 1.1%
O=C1CC(c2ccco2)Cc2nc(NCC3CCCO3)ncc21 (centres undefined) | 2e-08 | i | -24% | i | 2.2%

Part of the list above in a different format:
Second line of a record: A647 autofl | Resorufin fluor | TSHR agonist | A488 autofl | AID923
N#Cc1ccccc1CSc1nc(N2CCCCC2)nc(N2CCCCC2)n1
  4.4e-09 | i | -8% | i | 0.6%
Cn1c(Cn2c(=O)sc3ccccc32)nnc1SCC(=O)Nc1ccccc1F
  x | x | 2% | x | 1.3%
CC(Cc1ccccc1)C(=O)N[C@@H](CO)Cc1ccccc1 (some centres undefined)
  x | x | 6% | x | -1.4%
COc1ccc(C(=O)/C=C/Nc2cc(C)on2)cc1
  x | x | 12% | x | 1.6%

The list goes on:
Compound | A647 autofl | Resorufin fluor | TSHR agonist | A488 autofl | AID923
C=CCOc1ccc(C2N3CC4(C)CN2CC(CCC)(C3)C4=O)cc1 (centres undefined) | 4.2e-09 | i | u | i | -1.8%
Cc1cc2c(c(=O)o1)C1(C(=O)N(C)c3ccccc31)C(C#N)=C(N)O2 (centres undefined) | 1.3e-09 | i | -2% | i | 0.5%
Cc1ccccc1-c1nc(CS(=O)(=O)CC(=O)NCCN2CCOCC2)c(C)o1 | x | x | u | x | 3.2%
O=C(c1cc2ccccc2o1)n1nnc2ccccc21 | 1e-09 | i | 2% | i | 0.5%
Cc1sc2nc(SCc3nnc(-c4cccs4)o3)n(C3CCCC3)c(=O)c2c1C | 3e-09 | i | u | i | -0.7%
Cc1nc2cnc(Oc3cccc(Cl)c3)nc2n(CCC#N)c1=O | 1e-09 | i | u | i | 0.1%

The list is partial; rates above refer to the full screens.
